NPYLR7 ag: agonists of mosquito NPYLR7 receptor, primary screen, cell-based, Aedes aegypti, calcium fluorescence, mosquito biting behavior. Aedes aegypti neuropeptide Y-like receptor 7 (NPYLR7). activation, % at 10 µM. hit rate 0.15% among 270,000. HEK293T NPYLR7/Galpha15, GCaMP6s calcium fluorescence; in the data active = activation above about 40%;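 also: 0% = vehicle and 100% = reference agonist at the receptor; some compounds past the cut are filed as inactive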
NPYLR7 ag max-min: second read-out of NPYLR7 ag, no call of its own (marks repeat the call); activation, %; measured here: Max-Min RFU normalised activation; some inactives read as strong as hits;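 span of the calcium signal over five minutes; 0% = vehicle and 100% = native peptide agonist; compound fluorescence can raise it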
Active calls of the source: *; & = joins results of further samples. Only part of the results is shown; count on the stated rates, not on these rows.

Each structure is followed by: NPYLR7 ag, NPYLR7 ag max-min
> O=C1NC(c2ccc(Br)cc2)=N/C1=C/c1ccccc1
 : -4, -7
> Cc1ccc(OCC2CN(C(=O)Cc3c(F)cccc3F)CCO2)cc1 (centres undefined)
 : 5, 2
> COCCN=c1scc(-c2cc(OC)c(OC)c(OC)c2)n1N=C1CCc2ccccc21
 : 7, 3
> Cc1noc(C(C)NC(=O)/C=C/c2ccc(-c3ccccc3)s2)n1 (centres undefined)
 : 5, 4
> CCCC(O)CN(Cc1cccn1Cc1ccccc1F)C1CCCCC1 (centres undefined)
 : 7, 1
> Cc1cc(Oc2cccc(C)c2C)nc(SCc2ccccc2C#N)n1
 : 4, 5
> COc1cc2c(cc1OC)C(CNS(=O)(=O)c1ccc(C)cc1)N(C(=O)NC(C)(C)C)CC2 (centres undefined)
 : -5, 2
> CC(C)(C)c1cc(CNC(=O)c2cn(Cc3ccccc3C(F)(F)F)nn2)[nH]n1
 : 10, 0
> Cc1ccc(-n2ncc3c(=O)[nH]c(SCC(=O)NCc4ccc5c(c4)OCO5)nc32)cc1
 : 0, -1
> COCCN(Cc1cccs1)S(=O)(=O)c1c(C)c(C)cc(C)c1C
 : 7, 5
> COc1ccc(S(=O)(=O)Nc2ccc(N(C)C)c(CN(Cc3cccc(F)c3)C(=O)c3cccs3)c2)cc1
 : -7, 6
> O=C(CSc1nc(=O)n(CCO)c2c1CCCC2)Nc1nccs1
 : -8, -20
> Nc1ccc(-c2c(-c3ccccc3)[nH]n(-c3cccc(F)c3)c2=O)cc1
 : 29, 31
> CC(C)Cc1cn(CC2CCCN(C(=O)C3=CC(=O)CC(C)(C)O3)C2)nn1 (centres undefined)
 : -3, -5
> Cc1ccc(C(=O)Nn2cnc3c(cnn3-c3ccc(C)c(C)c3)c2=O)cc1C
 : 3, -2
> Cc1ccc(N2CC(C(=O)OC(C)C(=O)NCc3ccc(Cl)cc3)CC2=O)cc1 (centres undefined)
 : -5, 8
> O=C1NC2(CCN(C(=O)Cc3ccccc3)CC2)Nc2cccc(Cl)c21
 : -1, 11
> c1ccc2[nH]c(CC3CCCN(Cc4cc5n(n4)CCCNC5)C3)nc2c1 (centres undefined)
 : 2, 3
> O=C(COCc1ccccc1)Nc1ccc(N2CCC(Cc3ccccc3)CC2)c(C(=O)NCC2CCCO2)c1 (centres undefined)
 : 11, 14
> COc1ccc2ccccc2c1/C=N\NC(=O)CSc1nc2ccccc2s1
 : 7, 5
> CCNC(=O)Nc1cccc(NC(=O)C2CCCCN2C)c1 (centres undefined)
 : 2, 4
> CCC(CC)C(=O)N1CC(=O)N2CCc3cc(OC)c(OC)cc3C2C1 (centres undefined)
 : -1, 5
> O=C1NCC2(CCCN(C(=O)c3ccc4c(c3)CCCO4)CC2)O1 (centres undefined)
 : 7, 8
> CCCCCCCCn1c(O)c(C(C)=NCCCN2CCCC2)c(=O)[nH]c1=S
 : 6, 3
> CCCSc1nsc(NC(=O)CN(C)c2ccccc2)n1
 : 0, 3
> COc1cc(CSc2n[nH]c(C(C)C)n2)ccc1OC(F)F
 : 1, -1
> CCCCNC(=O)COC(=O)CCc1nc2ccccc2c(=O)[nH]1
 : -2, -6
> COc1cc(C#N)cc(OC)c1OC
 : 12, 8
> Cn1cccc1C(=O)OCC(=O)NC(=O)c1ccc(Cl)cc1
 : -4, -4
> CN(Cc1nccn1C)c1ccc(-c2nccn2C)nn1
 : 24, 15
> O=[N+]([O-])c1ccc(N2CCN(CCO)CC2)cc1Sc1nc2ccccc2[nH]1
 : -11, -16
> C=CCN(Cc1cccnc1)Cc1nccn1C
 : 6, 4
> COC(=O)c1occc1COC(=O)c1ccc2cn[nH]c2c1
 : 8, 3
> CCOc1ccc2nc(N3C(=O)C4C5c6ccccc6C(c6ccccc65)C4C3=O)sc2c1 (centres undefined)
 : -6, -9
> COc1cccc(C2c3[nH]c4ccccc4c3CCN2CC(=O)Nc2cc(C)nn2C)c1 (centres undefined)
 : -4, -6
> Oc1ccccc1O
 : 4, -5
> COc1ccc(/C=C2\Oc3c4c(cc(C)c3C2=O)OCN(Cc2ccncc2)C4)cc1
 : -3, -6
> COc1c(C)cc(C(=O)N2CC(N3CCCCC3C)C2)cc1C (centres undefined)
 : 14, 4
> CS(=O)(=O)c1ccccc1S(=O)CCc1ccccc1Cl (centres undefined)
 : 0, 7
> COCCn1c(=O)c2c(nc3n(-c4cc(C)ccc4C)c(C)cn23)n(C)c1=O
 : 6, -1
> CCN1CCCC1CNc1c(-c2ccc(OC)cc2)cnc2ncnn12 (centres undefined)
 : 8, 8
> Cc1ncc(CO)c(CN2CCCC2c2c(C)noc2C)c1O (centres undefined)
 : 6, 7
> O=C(C1CCOC1)N1CCCC(NS(=O)(=O)c2ccccc2)C1 (centres undefined)
 : 2, 2
> CC1(C(=O)NCc2cccc3ccccc23)CCN1C(=O)C1(c2ccccc2)CC1 (centres undefined)
 : 11, 20
> O=C(CN1C(=O)COCC1=O)N1CCCC2(CCNC2)C1 (centres undefined)
 : 0, -2
> O=C1CSC(=Nc2ccc(F)cc2)N1
 : 3, 10
> CCOC(=O)C1CCCN(C(=O)CC(c2cccc(F)c2)c2cn(C)c3ccccc23)C1 (centres undefined)
 : 4, 11
> CN(CC(=O)NOCc1ccccc1)S(=O)(=O)c1cccs1
 : 6, 4
> COc1ccc(N2C(=O)CN(C(=O)c3cccc(N4CCCC4=O)c3)CC2(C)C)cc1
 : -4, -7
> Cc1nn(CC(=O)Nc2cccc(O)c2)c(C)c1[N+](=O)[O-]
 : -3, -4
> CN1CCCCC1(C)C(=O)NCc1ccc(C(C)(C)C)cc1 (centres undefined)
 : -1, -2
> COCCN(CC(=O)N(Cc1ccc(F)cc1)Cc1ccco1)C(=O)c1ccc(Cl)c([N+](=O)[O-])c1
 : -3, 2
> Cn1c2ccc(Br)cc2c2nc3ccccc3nc21
 : 2&-7, 1&-8
> CCC(C)N(Cc1ccc(OS(=O)(=O)c2cccc(C(F)(F)F)c2)cc1)C(=O)Nc1ccccc1Br (centres undefined)
 : -1, 10
> CCn1nc(NC(C)=O)c2cc3cc(C)ccc3nc21
 : -1, -1
> Cc1cc2cc(C(=O)NCc3noc(Cc4ccccc4)n3)ccc2o1
 : 4, 3
> O=C(O)c1ccccc1C(=O)Nc1nc(-c2ccccc2)cs1
 : -2, -7
> Cc1cc(=O)oc2cc(C3CC(=O)Nc4[nH]ncc43)ccc12 (centres undefined)
 : -2, -5
> Cn1c(C(=O)N2CCCCCC2)cc2c(=O)n3ccccc3nc21
 : -1&1, -3&-2
> CCCCN(C(=O)NC(=O)NC(C)C12CC3CC(CC(C3)C1)C2)S(C)(=O)=O (centres undefined)
 : 0, 0

Ordered by number of heavy atoms (lowest first): six of the compounds above
Each structure is followed by: NPYLR7 ag, NPYLR7 ag max-min
> CCn1nc(NC(C)=O)c2cc3cc(C)ccc3nc21
 : -1, -1
> CN1CCCCC1(C)C(=O)NCc1ccc(C(C)(C)C)cc1 (centres undefined)
 : -1, -2
> Cn1c(C(=O)N2CCCCCC2)cc2c(=O)n3ccccc3nc21
 : -1&1, -3&-2
> Cc1cc2cc(C(=O)NCc3noc(Cc4ccccc4)n3)ccc2o1
 : 4, 3
> CCCCN(C(=O)NC(=O)NC(C)C12CC3CC(CC(C3)C1)C2)S(C)(=O)=O (centres undefined)
 : 0, 0
> CCOC(=O)C1CCCN(C(=O)CC(c2cccc(F)c2)c2cn(C)c3ccccc23)C1 (centres undefined)
 : 4, 11

Continued:
Each structure is followed by: NPYLR7 ag, NPYLR7 ag max-min
> CC1(C(=O)Nc2ccc3c(c2)OCO3)CCN1C(=O)c1ccco1 (centres undefined)
 : 4, -1
> Cc1cc(F)ccc1NC(=O)CCC1CCCN(Cc2cccc3c2OCO3)C1 (centres undefined)
 : 0, -2
> CN(C)CCn1nnnc1SC1CCN(c2ccccc2)C1=O (centres undefined)
 : 0, -6
> COCCCN(CC(=O)N(CCc1c[nH]c2ccccc12)Cc1ccc(C(F)(F)F)cc1)C(=O)c1ccc(C)c([N+](=O)[O-])c1
 : 23, 18
> O=c1cc(CSc2nnc(-c3cccnc3)o2)nc2ccc(Br)cn12
 : 0, 9
> C=CCCC(=O)NCc1cccc(-c2ncc(-c3cc(OC)ccc3OC)[nH]2)c1
 : -6, -7
> O=C(c1n[nH]c2c1CCC2)N1CC[C@@H](c2ccc3ccccc3c2)[C@H](O)C1
 : -3, -4
> O=C(COc1coc(CN2CCc3ccccc3C2)cc1=O)N1CCc2ccccc21
 : 1, -1
> CCc1nc(Cn2nc(C3CCCNC3)n(-c3ccccc3)c2=O)cs1 (centres undefined)
 : 9, 5
> Cc1ccnc(Nc2ccc(NCCNC(=O)CCC3CCCCC3)nn2)c1
 : 13, 2
> COc1cccc(-c2nc(COC(=O)c3nnn(-c4ccc(F)cc4)c3C)c(C)o2)c1OC
 : 5, -6
> CCC(=O)Nc1ccc(SCC(=O)NCC2CCCO2)nn1 (centres undefined)
 : 6, -5
> O=c1c(=Cc2ccccc2I)sc2nc3ccccc3n12
 : 0, -1
> CC(C)N(C(=O)COC1C(C2COC(C)(C)O2)OC2OC(C)(C)OC21)c1ccccc1 (centres undefined)
 : 3, 13
> CC1=C(C(=O)OC2CCCCCCC2)C(c2ccc([N+](=O)[O-])cc2)NC(=O)N1C (centres undefined)
 : 5, 3

(further entries)
| SMILES | NPYLR7 ag | NPYLR7 ag max-min |
| --- | --- | --- |
| CC(C)C[C@@H](N)C(=O)N(C)Cc1nc(-c2ccccn2)no1 | -5 | -5 |
| COc1ccc(F)c(F)c1-c1nccn1CCCc1nn[nH]n1 | 2 | 16 |
| Cc1cc([N+](=O)[O-])nn1CC(=O)Nc1ccc(Cl)c(Cl)c1 | -2 | -6 |
| O=C(O)c1cccc(CC2CCN(Cc3ccncc3)CC2)c1 | 11 | 7 |
| Cc1noc(C)c1C(=O)N[C@@H](CC(C)C)C(=O)OCc1ccccc1 | 2 | 1 |
| CC(C)c1ccc(NC2CCCN(C(=O)c3ccoc3)C2)cc1 (centres undefined) | -4 | -5 |
| O=C(Nc1cccc2cn[nH]c12)c1ccc(=O)n(-c2ccc(F)cc2)c1 | -5 | -9 |
| CC1(C)Cc2c(c(N3CCNCC3)[nH]c(=S)c2C#N)CO1 | 5 | 1 |
| C=CCc1ccccc1Oc1cc(F)nc(N)n1 | -16 | -20 |
| O=C(CCc1ccccc1)NCCCN1CCOC(c2ccccc2)C1 (centres undefined) | -8 | -10 |
| C#CCn1c(=NC(=O)c2ccc(C(C)=O)cc2)sc2cccc(F)c21 | 1 | 0 |
| O=C(Nc1cccc(C(F)F)c1)NC(CCCO)c1ccccc1 (centres undefined) | 2 | 2 |
| O=C(OCc1cc(=O)n2cc(Br)ccc2n1)C1=COCCO1 | 0 | 0 |
| Cc1ccc2oc(=O)n(CCc3n[nH]c(CCc4ccccc4)n3)c2c1 | 8 | 6 |
| CCOC(=O)c1nn(-c2ccc(C)cc2)c(=O)cc1OCC(=O)Nc1ccc(C)cc1 | 9 | 6 |
| COCC(=O)Nc1ccccc1-c1cccc(CN2CCOCC2)c1 | 0 | 0 |
| CSC(C)C(=O)NCc1ccc(Br)s1 (centres undefined) | -2 | -2 |
| O=C1OC(c2ccccc2)=NC1=Cc1ccc(Cl)s1 | -17 | -18 |
| COc1ccccc1C1c2cccn2CCCN1Cc1cc([N+](=O)[O-])ccc1Cl (centres undefined) | 10 | 15 |
| CC(C)CN1CC(=O)N(c2ccc(Cl)cc2)C2CS(=O)(=O)CC21 (centres undefined) | 7 | 7 |
| CCC(O)CN(Cc1ccc(OC)cc1)Cc1ccc2c(c1)OCO2 (centres undefined) | 25 | 24 |
| CCC(C)N(Cc1ccc(OS(=O)(=O)c2ccc(F)cc2)cc1)C(=O)Nc1cccc(F)c1 (centres undefined) | -2 | 5 |
| Cc1cc(N2CCN(C(=O)Nc3ccccc3Br)CC2)nc(-c2cccc(C(F)(F)F)c2)n1 | -2 | 9 |
| CN1CC2(CCCN(C(=O)CCc3n[nH]c4c3CCCC4)CC2)OC1=O (centres undefined) | 5 | 2 |

Rewritten field by field: 3 of the compounds above.
compound: COCC(=O)Nc1ccccc1-c1cccc(CN2CCOCC2)c1
  NPYLR7 ag = 0
  NPYLR7 ag max-min = 0
compound: CSC(C)C(=O)NCc1ccc(Br)s1 (centres undefined)
  NPYLR7 ag = -2
  NPYLR7 ag max-min = -2
compound: Cc1cc(N2CCN(C(=O)Nc3ccccc3Br)CC2)nc(-c2cccc(C(F)(F)F)c2)n1
  NPYLR7 ag = -2
  NPYLR7 ag max-min = 9

Further structures follow.
| SMILES | NPYLR7 ag | NPYLR7 ag max-min |
| --- | --- | --- |
| Cc1cnc(CNC(=O)c2cc(Cn3ccc4ccccc43)[nH]n2)cn1 | 0 | -2 |
| CC(C)(C)OC(=O)N1CCN(CCNS(=O)(=O)Cc2ccc(F)cc2)CC1 | 10 | 1 |
| COc1ccc(CN(CC(O)COCc2ccccc2)CC2CCCO2)cc1 (centres undefined) | 23 | 24 |
| C=C(C)CSc1n[nH]c(=S)s1 | -5 | -7 |
| COC(=O)c1c(NC(=O)CNC(C)(C)C)sc2c1CCCC2 | 15 | 11 |
| CCc1ccc(N2CCC(NS(=O)(=O)CC)CC2)cc1 | -1 | -2 |
| O=C(c1coc(CN(Cc2ccccc2)Cc2ccc(F)cc2F)n1)N1CCCC1 | 1 | 8 |
| CN(C)C(=O)c1ccc(-c2ccc3c(c2)COC2(CCN(C(=O)Nc4c(F)cccc4F)CC2)O3)cc1 | 3 | 11 |
| CC1c2ccc(-c3nn[nH]n3)n2CCN1C(=O)OC(C)(C)C (centres undefined) | 1&5 | 9&5 |
| COc1cc(C(=O)N2CCOC(COc3ccc(Cl)c(C)c3)C2)cc(OC)c1C (centres undefined) | 28 | 29 |
| CCOC(=O)C(C)Sc1nc(N)c(NC(=O)c2ccc(OC)c(OC)c2)c(=O)[nH]1 (centres undefined) | 0 | -2 |
| C=CCNc1ncnc2c1sc1nc(C(C)C)c3c(c12)CC(C)(C)OC3 | -5 | -5 |

Screens deposited in PubChem BioAssay by Fisher Drug Discovery Resource Center.
